Source: PubChem BioAssay
AF4-AF9 inh: inhibitors of AF4 peptide binding to AF9, primary screen, biochemical, AlphaScreen, biotin-AF4 peptide, FLAG-AF9, single point; Protein AF-9 (Homo sapiens), P42568; inhibition, % at 10 µM; 350,000 compounds, 0.47% hits;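 active = every replicate reaching a set inhibition limit, whatever the replicate mean, cut at about 25% in these data; inconclusive = mean inhibition reaches that limit but some replicates miss it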;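 also: 0% = plate neutral control median and 100% = total signal loss; the record names both 10 and 1 µM as test concentration; the first replicate is given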
Target sequence (P42568 whole entry, looked up): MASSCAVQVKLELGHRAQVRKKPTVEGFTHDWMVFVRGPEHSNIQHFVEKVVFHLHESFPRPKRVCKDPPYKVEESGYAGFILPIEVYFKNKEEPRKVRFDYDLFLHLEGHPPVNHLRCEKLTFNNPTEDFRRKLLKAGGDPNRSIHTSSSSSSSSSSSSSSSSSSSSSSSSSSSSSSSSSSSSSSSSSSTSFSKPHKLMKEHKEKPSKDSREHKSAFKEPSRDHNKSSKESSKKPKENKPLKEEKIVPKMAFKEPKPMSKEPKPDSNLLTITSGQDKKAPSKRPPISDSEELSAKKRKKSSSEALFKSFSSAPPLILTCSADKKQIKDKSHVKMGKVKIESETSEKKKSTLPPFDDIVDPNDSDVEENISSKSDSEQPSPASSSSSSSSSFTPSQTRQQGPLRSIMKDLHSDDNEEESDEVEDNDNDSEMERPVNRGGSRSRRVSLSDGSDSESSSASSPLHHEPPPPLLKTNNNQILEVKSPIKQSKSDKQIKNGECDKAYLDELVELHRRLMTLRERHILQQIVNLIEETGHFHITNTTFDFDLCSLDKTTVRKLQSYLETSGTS
Ecoli rRNA inh: reduced GFP signal of wild-type E. coli, primary screen, bacterial rRNA inhibitor project, GFP/RFP fluorescence, OD600, single point; E. coli WT GFP vs humanized-ribosome RFP mutants, 24 h; active compounds read low; DMSO median 0, no signal -100; GFP signal change (wild-type ribosome), % (no concentration beside the values); 350,000 compounds, 1.6% hits; AID 720706, 2013;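 active = significant combined selectivity score with lowered wild-type GFP, culture density cut under 30%, mutant RFP and density less affected; inactive = any of these conditions unmet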; also: one replicate is shown; some compounds called inactive have numbers as strong as hits
Beta apoptosis: inhibitors of cytokine-induced beta cell apoptosis, primary screen, luminescence; INS-1E cytokine-induced death, ATP luminescence, 48 h; percent of positive-control rescue, neutral wells zero; protection from apoptosis, % (concentration not given with the values); 300,000 compounds, 0.8% hits;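 active = all replicates at 75% or more, or half of them and the mean; inconclusive = half reach 75% but not the mean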;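 also: 0% = cytokine-treated negative control wells and 100% = positive control rescue; higher means more ATP so stronger rescue from cytokine killing; wells of about 40 µL received 100 nL stock; the first replicate is given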
ALR inh: inhibitors of human ALR sulfhydryl oxidase, primary screen, biochemical, H2O2 detection, HRP-luminol luminescence, single point. inhibition, % (concentration not given with the values). 290,000 compounds, 3.8% hits. FAD-linked sulfhydryl oxidase ALR (Homo sapiens), P55789. purified ALR, DTT oxidation;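 active = mean and each replicate at 75% or more; inconclusive = only one of the two met; inactive = neither met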;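 also: stock transfer was 7.5 nL into about 7.5 µL; 0% = neutral wells and 100% = wells with inactivated enzyme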
Target sequence (P55789 whole entry, looked up): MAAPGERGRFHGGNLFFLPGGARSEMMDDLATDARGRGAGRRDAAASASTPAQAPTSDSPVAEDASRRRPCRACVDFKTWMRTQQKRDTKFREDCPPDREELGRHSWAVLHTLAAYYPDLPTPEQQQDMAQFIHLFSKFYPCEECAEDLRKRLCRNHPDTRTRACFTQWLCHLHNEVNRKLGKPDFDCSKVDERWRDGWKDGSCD
FGF22 binding: binders of human FGF22 protein, primary screen, FGF22 synaptogenesis inhibitor project, biophysical, thermal shift, single point; recombinant FGF22 thermal shift, SYPRO orange fluorescence; percent of sucrose octasulfate shift, DMSO zero; AID 651658, 2012; Fibroblast growth factor 22 (Homo sapiens), Q9HCT0; calls only at 9.99 µM; 340,000 compounds, 1.5% hits;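 active = melting point raised past a set limit in the mean and every replicate; inconclusive = no clear call; three in four hits are not shown here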
Target sequence (Q9HCT0 whole entry, looked up): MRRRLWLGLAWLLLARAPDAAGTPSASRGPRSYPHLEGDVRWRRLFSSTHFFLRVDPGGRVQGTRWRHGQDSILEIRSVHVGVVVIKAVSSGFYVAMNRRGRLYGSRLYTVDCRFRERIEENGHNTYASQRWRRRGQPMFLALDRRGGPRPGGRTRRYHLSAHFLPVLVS
RanGTP-Impb inh: inhibitors of RanGTP-importin-beta interaction, primary screen, biochemical, FRET, CFP-Ran, YFP-importin-beta, homogeneous; cell-free CFP-Ran/YFP-importin-beta FRET ratio; AID 2216, 2009; 300,000 compounds, 1.1% hits; inhibition, % (test concentration not listed);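 active = most replicates above 15%; inconclusive = exactly half above 15%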;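 also: 0% = DMSO wells and 100% = Ran loaded with GDP instead of GTP; wells of about 40 µL received 100 nL stock; the first replicate is given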
Calb FLC: C. albicans growth inhibition with fluconazole, primary screen, CaCi-2 strain, Alamar Blue fluorescence; growth inhibition, % (test concentration not listed); C. albicans CaCi-2 (fluconazole-resistant clinical isolate) + fluconazole, 48 h; 300,000 compounds, 0.57% hits; AID 1979, 2009;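 active = most replicates above 75%; inconclusive = exactly half above 75%; inactive = most below 75%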;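 also: all wells also contain fluconazole at 8 µg/ml as a sub-toxic cotreatment; 0% = median of DMSO wells and 100% = median of geldanamycin control wells; wells of about 8 µL received 7.5 nL stock; the first replicate is given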
T cruzi repl: inhibitors of intracellular T. cruzi growth, primary screen, luminescence, NIH3T3 host cells | T. cruzi beta-gal in NIH3T3, 90 h | inhibition, % (no concentration beside the values) | 300,000 compounds, 1.4% hits | AID 1885, 2009;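 active = mean inhibition across valid replicates above about 55%, limit read from the data; inconclusive = mean below that limit but half or more replicates reach it; inactive = mean below it, under half of replicates reach it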;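 also: signal also drops with host cell toxicity which is not excluded here; 0% = plate median of DMSO wells and 100% = zero luminescence signal; higher percent means less beta-gal luminescence so fewer parasites; stock transfer was 50 nL into about 50 µL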
Ecoli rRNA inh OD600: second read-out of Ecoli rRNA inh, no call of its own (marks repeat the call); OD600 change, %; measured here: OD600 growth;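 optical density of the mix in the first replicate; 0 = DMSO median and -100 = no signal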
Ecoli rRNA inh RFP: recorded beside Ecoli rRNA inh, whose call it bears; RFP signal change, %; measured here: RFP humanized mutant strains;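 first replicate; 0 = DMSO median and -100 = no signal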
Starred values were filed as active, the others as inactive; i = inactive; ? = inconclusive; . = no result given. The list is partial, so the mix of outcomes need not match the whole.

The first 5 records (preview)
SMILES	AF4-AF9 inh	Ecoli rRNA inh	Ecoli rRNA inh OD600	Ecoli rRNA inh RFP	Beta apoptosis	ALR inh	FGF22 binding	RanGTP-Impb inh	Calb FLC	T cruzi repl
CC1CN(Cc2c(O)ccc3c(=O)c(-c4ccccc4Cl)coc23)CC(C)O1 (stereo not drawn)	-1.7	-2	8	6.7	4	1	i	1.1	13	-3
C=CCn1c(-c2csc(-c3ccc(Cl)cc3)n2)n[nH]c1=S	.	.	.	.	-21	-12	.	1.7	8	11
O=C(NCc1ccco1)C1CCCN(S(=O)(=O)Cc2ccccc2)C1 (stereo not drawn)	.	.	.	.	-6	0	.	2.1	-3	-8
Cc1cc(C)cc(NC(=O)c2ccc(CSc3nnc(C)s3)cc2)c1	.	.	.	.	0	-2	.	4.4	1	13
S=C(CN1CCCC1=S)NCCc1ccccc1	-4.5	6	-3	2.0	-6	-2	i	3.2	2	-12

The list itself, previewed entries included:
SMILES	AF4-AF9 inh	Ecoli rRNA inh	Ecoli rRNA inh OD600	Ecoli rRNA inh RFP	Beta apoptosis	ALR inh	FGF22 binding	RanGTP-Impb inh	Calb FLC	T cruzi repl
CC1CN(Cc2c(O)ccc3c(=O)c(-c4ccccc4Cl)coc23)CC(C)O1 (stereo not drawn)	-1.7	-2	8	6.7	4	1	i	1.1	13	-3
C=CCn1c(-c2csc(-c3ccc(Cl)cc3)n2)n[nH]c1=S	.	.	.	.	-21	-12	.	1.7	8	11
O=C(NCc1ccco1)C1CCCN(S(=O)(=O)Cc2ccccc2)C1 (stereo not drawn)	.	.	.	.	-6	0	.	2.1	-3	-8
Cc1cc(C)cc(NC(=O)c2ccc(CSc3nnc(C)s3)cc2)c1	.	.	.	.	0	-2	.	4.4	1	13
S=C(CN1CCCC1=S)NCCc1ccccc1	-4.5	6	-3	2.0	-6	-2	i	3.2	2	-12
NC(=O)N=Nc1c(O)[nH]c2ccc([N+](=O)[O-])cc12	-7.5	12	3	-7.7	6	10	.	1.8	1	-3
CCC(C)C(=O)Nc1nnc(CCc2ccccc2)s1 (stereo not drawn)	-1.6	3	4	-2.2	-9	24	i	2.8	-4	8
NS(=O)(=O)c1cnccc1Nc1ccc(Cl)cc1	.	.	.	.	.	-1	.	-1.5	4	10
O=C(Nc1cccc2ccccc12)c1cnsn1	0.1	-6	0	-1.1	6	-32	i	1.7	-14	-4
Cc1onc(-c2ccccc2)c1C(=O)NNC(=O)c1ccccc1O	-9.5	-11	-5	-1.2	-4	.	i	1.1	6	-2
CC(C(=O)Nc1ccc(C(=O)O)c(O)c1)N1C(=O)/C(=C\c2ccco2)SC1=S (stereo not drawn)	.	.	.	.	3	18	.	0.7	-2	-15
O=C1CCN(CCc2ccccc2)CCN1CCOc1ccccc1	-0.7	-2	0	-5.1	5	-1	i	5.1	-3	1
O=C(O)Cc1c[nH]c2ccc(O)cc12	-2.8	.	.	.	-7	16	i	-2.7	1	-8
COc1cc(OC)cc(-c2n[nH]c(=S)n2-c2cc(OC)ccc2OC)c1	.	.	.	.	0	49	.	-1.5	17	1
COc1ccc(/C=N/NC(=O)c2cccnc2)cc1COc1ccc([N+](=O)[O-])cc1	-0.3	-5	16	-1.5	7	-8	i	1.0	-6	7
COc1ccc(C(C)=O)cc1CSc1nnc(Nc2ccccc2)s1	.	.	.	.	3	.	.	-3.8	-10	1
CC(C)(CS(=O)(=O)[O-])NC(=O)CC[N+](C)(C)CCO	.	.	.	.	-7	-2	.	?	-1	-14
Cc1cnc(C(=O)NCCc2ccc(S(=O)(=O)NC(=O)NC3CCCCC3)cc2)cn1	0.3	.	.	.	.	-2	i	1.7	1	-9
N#CCCN(CCC#N)C(=O)c1ccc2c(c1)OCO2	.	.	.	.	-4	-3	.	2.4	?	6
O=C(Cc1cccc(C(F)(F)F)c1)NCc1ccc(Cl)cc1Cl	.	.	.	.	9	16	.	-1.0	-4	4
S=c1nc[nH]c2c1ncn2C1CCCC1	-9.1	13	14	-1.8	-3	0	i	-1.4	-8	-10
O=C1c2ccccc2C(=O)N1CSc1nnc2c3ccccc3n(CCc3ccccc3)c2n1	.	.	.	.	-2	12	.	1.3	-4	-6
CCCCNC(=O)CC1N=C2c3ccccc3N=C(SCC(=O)Nc3cccc(OC)c3)N2C1=O (stereo not drawn)	.	.	.	.	-1	84*	.	0.7	-2	7
CC1=CC(C)(C)N2C(=O)C3(C(C#N)=C(N)OC4=C3C(=O)CCC4)c3c(C)c(C)cc1c32 (stereo not drawn)	.	.	.	.	0	-12	.	0.6	-8	-28
CCC(Sc1nc2n[nH]c(C)c2c(=N)n1-c1cccc(Cl)c1C)C(=O)N(CC)CC (stereo not drawn)	.	.	.	.	36	-2	.	-0.3	5	45
CC(C)CCn1c(COc2ccccc2)n[nH]c1=S	-4.7	-20	-20	-1.3	-2	29	i	7.4	18	21
COc1ccc(S(=O)(=O)N2CCOCC2)cc1NC(=O)COC(=O)c1[nH]c(C)c(C(C)=O)c1C	-5.9	0	15	-1.3	-9	-3	i	.	.	.
COc1ccc(C(=O)N/N=C(\C)c2cccc(NC(=O)c3ccc(F)cc3)c2)c(OC)c1	-0.4	-3	5	-5.7	7	-8	i	2.1	17	2
Cc1occc1C(=O)N/N=C/C=C/c1ccccc1[N+](=O)[O-]	-3.4	8	-3	4.0	3	16	i	-0.5	1	-10
Cc1ccc(NC(=O)CCCn2nc(C)c3c(C)n(-c4ccccc4)nc3c2=O)cc1C	-0.3	14	16	1.0	0	-2	i	1.4	-11	-16
Nc1ccc(Oc2ncccn2)cc1	4.2	6	10	3.2	-3	18	i	-1.4	14	-5
COc1ccc(Cl)cc1NC(=O)C[n+]1ccccc1	-11	1	2	-0.8	-4	.	i	-1.8	17	-14
COc1ccccc1CNC(=S)NC1CCCCC1	5.6	-9	-1	-4.0	1	1	i	-4.1	-46	0
COc1ccc2cc(/C(C)=N/NC(=O)c3cc(-c4cccnc4)nc4ccccc34)ccc2c1	-1.6	12	15	0.6	-3	-20	i	1.3	4	-13
CCOC(=O)C1(Cc2ccccc2C(F)(F)F)CCN(C(=O)c2cc(C)n(C)n2)CC1	2.5	-16	-22	-3.0	2	-26	i	2.0	-2	16
Cc1ccc(S(=O)(=O)N2CCOCC2)cc1N/N=C(\C#N)c1nc2ccccc2[nH]1	6.2	11	15	2.1	13	-2	i	-0.9	?	47
CC1CCCCN1C(=O)CSc1nc(-c2ccccc2)cn1N (stereo not drawn)	-1.6	7	-1	-0.8	-5	0	i	-2.8	-13	-2
O=CN1CCN(C(C(=O)NC2CCCC2)c2ccc(Cl)cc2)CC1 (stereo not drawn)	.	.	.	.	0	-11	.	1.5	-2	-3
Cc1sc(NC(=O)CN(C)C2CCCCC2)nc1-c1ccc2c(c1)CCN2S(=O)(=O)c1ccccc1	.	.	.	.	34	-9	.	-3.2	-8	21
CS(=O)(=O)N(CC(O)Cn1c2ccccc2c2ccccc21)c1ccccc1 (stereo not drawn)	.	.	.	.	2	-4	.	-0.1	31	19
CC1=NN(c2ccccc2)C(=O)/C1=C\c1cc(C)n(-c2ccccc2)c1C	-6.4	20	10	1.9	1	-13	i	0.8	5	13
COc1ccc(OCC(O)CON2C(=O)c3ccccc3C2=O)cc1 (stereo not drawn)	.	.	.	.	0	.	.	-0.7	1	-3
COc1cc(-c2nnn(Cc3ccccc3C)n2)cc(OC)c1OC	-2.5	-10	-9	4.2	4	-3	i	7.5	2	9
Cc1cccc2c1N(CCOc1ccccc1Cl)C(=O)C2=O	.	.	.	.	6	-5	.	-0.5	-18	21
CCOc1ncccc1C(=O)Nc1ccc(C)c(S(=O)(=O)N2CCCCCC2)c1	-4.7	10	17	-0.9	10	-7	i	.	.	.

Complete entries from above.
`Cc1cccc2c1N(CCOc1ccccc1Cl)C(=O)C2=O` is listed with AF4-AF9 inh: .; Ecoli rRNA inh: .; Ecoli rRNA inh OD600: .; Ecoli rRNA inh RFP: .; Beta apoptosis: 6; ALR inh: -5; FGF22 binding: .; RanGTP-Impb inh: -0.5; Calb FLC: -18; T cruzi repl: 21
`CC1=NN(c2ccccc2)C(=O)/C1=C\c1cc(C)n(-c2ccccc2)c1C` is listed with AF4-AF9 inh: -6.4; Ecoli rRNA inh: 20; Ecoli rRNA inh OD600: 10; Ecoli rRNA inh RFP: 1.9; Beta apoptosis: 1; ALR inh: -13; FGF22 binding: i; RanGTP-Impb inh: 0.8; Calb FLC: 5; T cruzi repl: 13

More structures:
SMILES	AF4-AF9 inh	Ecoli rRNA inh	Ecoli rRNA inh OD600	Ecoli rRNA inh RFP	Beta apoptosis	ALR inh	FGF22 binding	RanGTP-Impb inh	Calb FLC	T cruzi repl
O=c1cc(CN2CCOCC2)c2ccc(O)c(O)c2o1	-1.5	-2	6	1.0	1	99*	i	?	0	-10
Cc1ccccc1-n1nc2c(c1NC(=O)CC(C)C)CS(=O)C2 (stereo not drawn)	-3.2	3	11	-0.2	4	.	i	?	1	-10
CC(CCc1ccccc1)NC(=O)COC(=O)c1ccc(F)cc1 (stereo not drawn)	-1.7	2	-7	0.1	-1	-2	i	0.0	-4	5
O=C(Nc1ccccc1C(=O)N1CCOCC1)c1cccnc1	.	.	.	.	-7	-8	.	8.5	-5	-22
O=C(O)CN1C(=O)COc2ccc(S(=O)(=O)N3CCCCCC3)cc21	0.4	5	11	-3.9	-6	-3	i	1.6	15	-22
Cc1nc(C)c(C(=O)Nc2ccccc2)s1	.	.	.	.	.	-38	.	5.3	-10	-4
CCOC(=O)c1c(C)[nH]c(C(=O)COC(=O)c2ccc(O)cc2)c1C	-4.5	1	-4	5.7	.	.	i	-3.8	0	-4
COc1ccc(NC(=O)CN(C)C(=O)c2n[nH]c3ccccc23)cc1	-0.5	-6	-7	1.8	-1	.	i	-0.6	-4	-3
C[C@@H]1NC(=O)[C@@]2(C)[C@@H](c3ccccc3)[C@H]3COc4ccccc4[C@@H]3N2C1=O	0.7	13	3	4.0	-2	1	i	.	.	.
Cc1cc(C)n(C(=O)c2ccc(C)c(S(=O)(=O)N3CCOCC3)c2)n1	.	.	.	.	-19	-8	.	4.6	-4	-12
CCCC(=O)Nc1ccc(C(=O)NNC(=O)c2cccs2)cc1	10.0	13	13	-12	-5	-4	i	-3.8	-5	5
O=c1oc2ccccc2c(NCc2cccc(F)c2)c1[N+](=O)[O-]	.	.	.	.	-18	25	.	-2.2	14	-8
Cc1sc(N)nc1-c1ccc(Oc2ccccc2)cc1	0.6	-31	-36	-1.4	3	42	i	0.8	4	2
Cc1sc2ncnc(N3CCC(C(=O)Nc4cc(Cl)ccc4Cl)CC3)c2c1C	-35	-9	-11	11	-3	-6	i	-1.8	.	4
